DUX4 inh = inhibitors of DUX4-driven ZSCAN4 reporter expression, primary screen, 293T cells, Gaussia and Italica luciferase; 293T-iDUX4 ZSCAN4-Gaussia luciferase reporter, 24 h; hits give low values; activity change, negative = inhibition, % (no concentration beside the values); hit rate 0.8% among 37,000;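 active = -10% or lower and over 25 points stronger than a control reporter; inconclusive = -10% or lower with a smaller gap; inactive = above -10%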;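 also: 0% = median of neutral control wells and -100% = median of positive control wells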
DUX4 inh difference = recorded beside DUX4 inh, whose call it bears; Gaussia minus Italica difference, %; measured here: selective DUX4 reporter inhibition;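 worked out from the two reporters; negative = selective loss of the DUX4 reporter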
DUX4 inh control = second read-out of DUX4 inh, no call of its own (marks repeat the call); activity change, negative = inhibition, %; measured here: Italica tet-on control reporter;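 0 = neutral control and -100 = positive control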
Numbers without * were called inactive; u = inconclusive; x = no result given; ! = not confirmed by another sample.

Order of values: DUX4 inh | DUX4 inh difference | DUX4 inh control
> COc1ccc(NC(=O)N2CCCCN3[C@H](CO)[C@H](c4ccc(C#Cc5ccccn5)cc4)[C@@H]3C2)cc1
→ 12 | 7 | 5.7
> CN1C(=O)c2cc(NC(=O)Cc3ccccc3)ccc2OC[C@@H]2O[C@H](CC(=O)NCC3CC3)CC[C@@H]21
→ 0 | -4 | 5.0
> CNC(=O)C[C@@H]1CC[C@@H]2[C@H](COC[C@H](O)CN2Cc2ccccc2F)O1
→ 2 | 3 | -0.6
> COc1ccc(C#Cc2ccc3c(c2)[C@H]2[C@H](CCN2Cc2ccncc2)[C@H](CO)N3)cc1
→ 1 | -10 | 11
> C[C@H]1CN([C@@H](C)CO)C(=O)c2cc(C#Cc3cccc(F)c3)cnc2O[C@H]1CN(C)CC1CCCC1
→ 3 | 3 | -0.2
> C[C@H](CO)N1C[C@H](C)[C@H](CN(C)C(=O)Nc2cccc3ccccc23)OCc2cn(nn2)CCCC1=O
→ 3 | 2 | 1.4
> COc1cccc(S(=O)(=O)Nc2ccc3c(c2)[C@H]2C[C@H](CC(=O)NCc4cccc(F)c4)O[C@H](CO)[C@H]2O3)c1
→ u | x | x
> CNC(=O)C[C@@H]1CC[C@@H]2[C@H](COc3ccc(NC(=O)Nc4ccc(Cl)cc4)cc3C(=O)N2C)O1
→ 5 | 13 | -7.8
> CN1C(=O)c2cc(NC(=O)c3cccc(F)c3)ccc2OC[C@H]2O[C@@H](CC(=O)N3CCc4ccccc4C3)CC[C@H]21
→ -1 | -4 | 3.8
> CC(=O)N1[C@H](CO)[C@H](c2ccccc2)[C@@H]1CN(C)S(=O)(=O)c1ccccc1
→ 0 | -2 | 1.8
> O=S(=O)(c1cccc(F)c1)N1CC[C@@H]2[C@@H](CO)Nc3ccc(Br)cc3[C@@H]21
→ -3 | 1 | -3.6
> COc1ccc(C#Cc2ccc([C@@H]3[C@H]4CN(Cc5ccccc5F)CCCCN4[C@H]3CO)cc2)cc1
→ u | x | x
> COc1ccccc1CNC(=O)C[C@@H]1CC[C@@H]2[C@H](COC[C@@H](O)CN2Cc2ccccc2)O1
→ -2 | 1 | -3.1
> O=C(C[C@H]1C[C@H]2c3cc(NC(=O)Cc4ccncc4)ccc3O[C@H]2[C@H](CO)O1)NCc1ccc(-c2ccccc2)cc1
→ -68* | -26* | -42*
> O=C(O)C[C@@H]1C[C@H]2c3cc(NC(=O)Cc4ccncc4)ccc3O[C@H]2[C@@H](CO)O1
→ 4 | 2 | 2.4
> CNC[C@@H]1OCCCC[C@H](C)Oc2ccc(NC(=O)Cc3ccccc3)cc2C(=O)N([C@@H](C)CO)C[C@H]1C
→ 1 | 2 | -0.4
> CCN1[C@H](C(=O)N(C)C)[C@@H](CO)[C@@H]2Cn3c(ccc(-c4ccccc4OC)c3=O)[C@@H]21
→ 13 | 5 | 7.9
> COc1cccc(NC(=O)N2CC(=O)N3[C@H](C2)[C@@H](c2ccc(Br)cc2)[C@@H]3CO)c1
→ 4 | 8 | -4.4
> C[C@H]1CN([C@@H](C)CO)C(=O)c2cc(NC(=O)CCC(F)(F)F)ccc2O[C@@H]1CN(C)S(=O)(=O)c1ccc(F)cc1
→ 5 | 7 | -2.4
> COc1ccc2c3c(n(C)c2c1)[C@@H](CO)N(C(=O)Nc1ccccc1F)CC31CN(C(C)=O)C1
→ 5 | -2 | 7.5
> CS(=O)(=O)Nc1ccc2c(c1)[C@@H]1C[C@@H](CC(=O)NCC3CC3)O[C@@H](CO)[C@@H]1O2
→ 9 | 8 | 1.1
> O=C1N[C@H](Cc2ccccc2)COCc2cnnn2CC[C@@H]1Cc1cccc(F)c1
→ -1 | 0 | -0.6
> CO[C@H]1CN(C)C(=O)c2ccc(NC(=O)c3ccno3)cc2OC[C@H](C)N(S(C)(=O)=O)C[C@H]1C
→ -3 | -9 | 6.0
> CN1C(=O)c2cc(NC(=O)C3CCOCC3)ccc2OC[C@@H]2O[C@@H](CC(=O)NC3CCCC3)CC[C@@H]21
→ -1 | -3 | 1.1
> C[C@H]1CN([C@@H](C)CO)C(=O)Cc2cc(NC(=O)CCC(F)(F)F)ccc2O[C@@H]1CN(C)CC1CC1
→ 1 | -1 | 1.8
> CCCNC(=O)Nc1ccc2c(c1)C(=O)N(C)[C@@H]1CC[C@H](CC(=O)NC)O[C@H]1CO2
→ -2 | -1 | -1.3
> COc1ccccc1C#Cc1ccc2c(c1)O[C@@H](CN(C)Cc1ccncc1)[C@H](C)CN([C@@H](C)CO)S2(=O)=O
→ -3 | -7 | 3.8
> Cc1cc(C(=O)Nc2ccc3c(c2)C(=O)N(C)[C@@H]2CC[C@H](CC(=O)NCc4ccc(-c5ccccc5)cc4)O[C@@H]2CO3)no1
→ 0 | -2 | 1.8
> N#C[C@@H]1[C@@H](c2ccccc2-c2cccc(F)c2)[C@H](CO)N1C(=O)C1CCCCC1
→ -9 | 2 | -10
> OC[C@@H]1[C@H](c2ccccc2)C2(CN(CCC(F)(F)F)C2)N1Cc1cccnc1
→ 1 | -8 | 9.8
> C/C=C/c1ccc([C@H]2[C@@H](CO)N(C(=O)COC)[C@@H]2CNC(=O)CC)cc1
→ 2 | -3 | 4.0
> O=S(=O)(c1ccccc1)N1CCCCN2[C@H](CO)[C@@H](c3ccc(-c4ccccc4F)cc3)[C@@H]2C1
→ u | x | x
> C[C@@H](NC(=O)C[C@H]1CC[C@@H]2[C@H](COC[C@@H](O)CN2C(=O)Nc2cccc(F)c2)O1)c1ccccc1
→ 10 | 5 | 5.0
> O=C(C[C@@H]1CC[C@H]2[C@@H](COC[C@@H](O)CN2C(=O)c2ccccc2F)O1)NCc1ccc(F)cc1
→ u | x | x
> C[C@@H]1CC=CC[C@H](c2ccccc2)NC(=O)[C@H](C)N(C)C(=O)c2ccccc2O1 (mixture of isomers)
→ 1 | 1 | 0.3
> CCC(=O)N1C[C@H]2[C@@H](c3ccccc31)[C@@H](CO)N2Cc1cc(F)ccc1F
→ 1 | 3 | -1.7
> Cc1cccc(S(=O)(=O)N2C[C@@H]3N[C@H](C2)C3c2ccc(-c3ccccc3F)cc2)c1 (stereo not given in full)
→ u | 4 | -13
> O=C(C[C@@H]1CC[C@H]2[C@@H](COC[C@@H](O)CN2CCC(F)(F)F)O1)NCc1ccc(Oc2ccccc2)cc1
→ u | x | x
> CO[C@@H](CN(C)S(=O)(=O)c1ccc(F)cc1)[C@H](C)CN(Cc1ccccc1Cl)[C@H](C)CO
→ 2 | 2 | 0.1
> COc1ccc2c3c(n(C)c2c1)[C@H](CO)N(C(=O)c1ccncc1)CC31CN(CC2CC2)C1
→ 9 | 9 | 0.5
> C[C@H](O)C#Cc1ccc2c(c1)O[C@@H](CN(C)Cc1ccc(-c3ccccc3)cc1)[C@H](C)CN([C@H](C)CO)S2(=O)=O
→ -2 | -4 | 2.4
> C[C@H](CO)N1C[C@H](C)[C@@H](CN(C)C(=O)Nc2cccc(C(F)(F)F)c2)OCc2cn(nn2)CCCC1=O
→ 3 | 9 | -6.0
> C[C@H](NC(=O)N(C)C[C@H]1OCc2ccccc2-c2ccccc2C(=O)N([C@@H](C)CO)C[C@H]1C)c1ccccc1
→ 17 | 10 | 6.4
> COC(=O)C[C@@H]1CC[C@H]2[C@H](COc3ccc(NC(=O)Nc4cc(C)cc(C)c4)cc3C(=O)N2C)O1
→ 1 | -1 | 2.2
> CN(C)CC(=O)N[C@H]1CC[C@H](CC(=O)NCCN2CCCCC2)O[C@@H]1CO
→ 1 | 3 | -1.8
> COc1ccccc1NC(=O)N1C[C@H]2[C@@H](c3ccccc31)[C@H](CO)N2C(C)=O
→ 3 | 1 | 2.3
> C[C@@H]1CN([C@H](C)CO)C(=O)c2ccccc2-c2ccccc2CO[C@@H]1CN(C)C(=O)[C@@H](Cc1ccccc1)N(C)C
→ 6 | -11 | 17
> COCCN(C[C@@H]1N[C@@H](CO)[C@@H]1c1ccc(-c2ccc(F)cc2)cc1)C(C)=O
→ 2 | 1 | 0.7
> O=C(C[C@H]1CC[C@@H]2[C@H](COC[C@H](O)CN2C(=O)c2cnccn2)O1)NCc1ccc(Oc2ccccc2)cc1
→ 1 | 1 | 0.0
> COc1ccc(S(=O)(=O)N2C[C@H](O)COC[C@H]3O[C@@H](CC(=O)N[C@H]4CCN(Cc5ccccc5)C4)CC[C@@H]32)cc1
→ -6 | -12 | 6.1
> C[C@H](CO)N1C[C@H](C)[C@H](CN(C)S(=O)(=O)c2ccc3c(c2)OCCCO3)OCc2cnnn2CCCC1=O
→ 2 | 4 | -2.6
> COCC#Cc1ccc([C@H]2[C@H]3CN(C(=O)Nc4cc(F)ccc4F)CCCCN3[C@H]2CO)cc1
→ 2 | -11 | 14
> O=C(NCC[C@H]1CC[C@@H](NS(=O)(=O)c2ccccc2)[C@@H](CO)O1)c1ccccc1F
→ 3 | 1 | 1.3
> COc1ccc(NC(=O)N2CC(=O)N3[C@H](C2)[C@H](c2ccc(C4=CCCC4)cc2)[C@@H]3CO)cc1
→ 18 | 6 | 12
> N#C[C@@H]1[C@H](c2ccccc2/C=C/c2ccccc2)[C@H](CO)N1S(=O)(=O)c1cccc(F)c1
→ u | x | x
> COc1ccccc1NC(=O)N[C@@H]1CC[C@H](CC(=O)N[C@@H](C)c2ccccc2)O[C@H]1CO
→ 3 | 1 | 1.4
> O=C(O)C[C@@H]1CC[C@H](NC(=O)c2ccccc2F)[C@@H](CO)O1
→ 1 | 2 | -0.4
> CCS(=O)(=O)Nc1ccc2c(c1)C(=O)N(C)C[C@H](OC)[C@H](C)CN(C(=O)CN(C)C)[C@@H](C)CO2
→ 5 | 3 | 2.5
> CCCNC(=O)C[C@@H]1CC[C@@H]2[C@H](COc3ccc(NC(=O)Nc4ccccc4F)cc3C(=O)N2C)O1
→ 6 | 3 | 3.4
> C[C@H](CO)N1C[C@H](C)[C@H](CN(C)C(=O)Nc2ccccc2F)OCc2cn(nn2)CCCC1=O
→ 3 | 1 | 2.6

mol: O=C(C1CCCC1)N1C[C@@H]2N[C@H](C1)C2c1ccc(-c2ccncc2)cc1 (stereo not given in full)
  DUX4 inh = -28*!
  DUX4 inh difference = -26*!
  DUX4 inh control = -1.5*!
mol: C[C@H](NC(=O)[C@@H]1N[C@@H]2c3ccc(-c4cccnc4)c(=O)n3C[C@@H]2[C@H]1CO)c1ccccc1
  DUX4 inh = -1
  DUX4 inh difference = -2
  DUX4 inh control = 1.4
mol: COCC(=O)N1CC2(C1)CN(S(C)(=O)=O)[C@H](CO)c1c2c2ccc(OC)cc2n1C
  DUX4 inh = 13
  DUX4 inh difference = 7
  DUX4 inh control = 5.6
mol: CO[C@@H]1CC[C@@H]2CCN(C)C(=O)[C@@H](C)[C@H](OC)CN(C)C(=O)c3cccc(C#N)c3OC[C@@H]1O2
  DUX4 inh = -1
  DUX4 inh difference = -1
  DUX4 inh control = 0.5
mol: COCC(=O)Nc1ccc2c(c1)[C@H]1C[C@H](CC(=O)NCc3ccc4c(c3)OCO4)O[C@H](CO)[C@H]1O2
  DUX4 inh = 13
  DUX4 inh difference = 17
  DUX4 inh control = -3.7
mol: CCCNC(=O)[C@H]1[C@H](CO)[C@H]2Cn3c(ccc(-c4ccccc4F)c3=O)[C@H]2N1CC1CC1
  DUX4 inh = 5
  DUX4 inh difference = 13
  DUX4 inh control = -8.0
mol: O=C(c1cnccn1)N1CC[C@@H]2[C@@H](CO)Nc3ccc(-c4ccccc4F)cc3[C@@H]21
  DUX4 inh = -1
  DUX4 inh difference = 7
  DUX4 inh control = -7.6
mol: C[C@@H]1CCCCO[C@H](CN(C)Cc2ccncc2)[C@@H](C)CN([C@H](C)CO)C(=O)c2cc(NC(=O)Cc3ccccc3)ccc2O1
  DUX4 inh = 1
  DUX4 inh difference = 2
  DUX4 inh control = -0.4
mol: O=C(C[C@H]1CC[C@@H]2[C@H](COC[C@H](O)CN2C(=O)Nc2ccccc2)O1)NCCCN1CCOCC1
  DUX4 inh = 1
  DUX4 inh difference = -1
  DUX4 inh control = 1.4
mol: C[C@H](CO)N1C[C@H](C)[C@@H](CN(C)S(=O)(=O)c2ccc3ccccc3c2)OCc2cn(nn2)CCCC1=O
  DUX4 inh = 4
  DUX4 inh difference = 3
  DUX4 inh control = 1.7

mol: Cc1cccc(S(=O)(=O)N2C[C@@H]3[C@H](c4ccccc42)[C@H](CO)N3C(=O)c2ccccc2)c1
  DUX4 inh = 1
  DUX4 inh difference = 0
  DUX4 inh control = 1.1
mol: N#C[C@H]1[C@@H](c2ccc(-c3ccccc3F)cc2)[C@@H](CO)N1C(=O)C1CCC1
  DUX4 inh = -2
  DUX4 inh difference = 2
  DUX4 inh control = -3.9
mol: C[C@@H]1CN([C@@H](C)CO)S(=O)(=O)c2ccc(/C=C/c3ccccc3)cc2O[C@@H]1CN(C)C(=O)Nc1cccc(F)c1
  DUX4 inh = -3
  DUX4 inh difference = -3
  DUX4 inh control = 0.6
mol: O=C(C[C@H]1C[C@@H]2c3cc(NC(=O)NC4CCCC4)ccc3O[C@@H]2[C@@H](CO)O1)NCc1ccc2c(c1)OCO2
  DUX4 inh = -1
  DUX4 inh difference = -1
  DUX4 inh control = -0.6
mol: CCCNC(=O)[C@H]1[C@H](CO)[C@H]2Cn3c(ccc(-c4ccc(F)cc4)c3=O)[C@@H]1N2CCC
  DUX4 inh = 2
  DUX4 inh difference = 5
  DUX4 inh control = -3.4
mol: CC=Cc1ccc2n(c1=O)C[C@H]1[C@H](CO)[C@@H](C(=O)NCC3CC3)N(C(=O)C3CCOCC3)[C@@H]21 (mixture of isomers)
  DUX4 inh = 0
  DUX4 inh difference = 4
  DUX4 inh control = -3.7
mol: CNC[C@@H]1OCCCC[C@H](C)Oc2ccc(NS(=O)(=O)c3cn(C)cn3)cc2C(=O)N([C@H](C)CO)C[C@@H]1C
  DUX4 inh = 2
  DUX4 inh difference = 5
  DUX4 inh control = -3.7

A portion of the library; rates above refer to the full screens.
